NPSR antagonist: blocks cAMP signaling of the human neuropeptide S receptor; CHO-NPSR cells, cAMP TR-FRET, antagonist mode; hit rate 1% among 220,000; AID 1461; Potency, µM (top dose mostly 38.3 µM), inactives show at the highest dose activity change, negative = inhibition, actives largely listed as inhibitors; Q6W5P4; also: % is scaled to controls: 0 for no effect and ±100 for the full control effect; nearly all actives have a fitted effect of over 50% in size; many of its hits are not listed in these tables
Target sequence (Q6W5P4 whole entry, looked up): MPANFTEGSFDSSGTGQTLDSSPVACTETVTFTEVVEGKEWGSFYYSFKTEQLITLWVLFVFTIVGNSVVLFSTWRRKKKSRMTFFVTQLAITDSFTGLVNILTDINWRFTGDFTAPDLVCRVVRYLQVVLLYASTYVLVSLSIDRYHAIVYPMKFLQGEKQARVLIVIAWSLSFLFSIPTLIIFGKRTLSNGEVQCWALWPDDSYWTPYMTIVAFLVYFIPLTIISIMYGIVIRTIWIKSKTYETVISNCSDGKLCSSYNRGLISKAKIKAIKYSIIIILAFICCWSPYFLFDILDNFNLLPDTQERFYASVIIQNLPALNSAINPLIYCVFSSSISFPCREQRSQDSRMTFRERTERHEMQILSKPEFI
Epigenetic reg: derepresses silenced GFP reporter in murine cells; hit rate 0.2% among 280,000; murine LDR cells, GFP reporter derepression, 30 h; Potency, µM (titrated, usually from 53.9 µM), inactives show at the highest dose GFP activation, usual class: activators; also: % of control where 0% means no effect; nearly all actives have a fitted effect of over 60% in size
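In this reporter-derepression format, murine cells bearing a silenced integrated CMV-GFP locus incubate with test compound (30 h, 37 C), then are washed and imaged; fluorescent objects of 20–120 um count as induced cells.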
Luc counter: counter-screen: inhibitors of Kinase-Glo firefly luciferase; AID 1379; hit rate 0.28% among 200,000; Potency, µM (series often up to 38.3 µM), for the others: at the top dose activity change, negative = inhibition, most hits filed as inhibitors; Kinase-Glo luciferase, ATP luminescence, 8 min; Q27757; also: % is scaled to controls: 0 for no effect and ±100 for the full control effect; nearly all actives have a fitted effect of over 60% in size
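Compound is pinned into ATP-containing buffer (10 uM ATP, imidazole pH 7.2, 7 mM MgCl2). Kinase-Glo luciferase reagent is then added. Light output is recorded following an 8-min room-temperature incubation.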
RECQ1 helicase: inhibitors of human RECQ1 DNA helicase | P46063 | RECQ1 DNA unwinding, red fluorescence kinetic read | Potency, µM (titrated, usually from 57.3 µM), for inactives: top-dose activity, negative = inhibition, usual class: inhibitors | hit rate 0.54% among 240,000 | AID 2549;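 also: plate controls were vehicle for no effect and no enzyme for full effect; nearly all actives have a fitted effect of over 30% in size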
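RECQ1T1 50 nM; forked duplex (20 bp + 30-nt ss tails) 200 nM, ATP 2 mM final; pH 8.0, 2 mM MgCl2, 2.5 ug/ml poly(dI-dC); 15 min compound preincubation; discontinuous kinetic read over 2 h at RT.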
SMN2 splice enh: enhancers of SMN2 splice variant expression; hit rate 2.8% among 210,000; HEK293 SMN2-luciferase splicing reporter, luminescence, 30-36 h; Potency, µM (top dose mostly 46.1 µM), for the others: top-dose activity change, positive = activation, actives largely listed as activators; AID 1458; also: % of control where 0% means no effect; nearly all actives have a fitted effect of over 55% in size
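qHTS luciferase splicing reporter: luminescence rises when SMN2 exon 7 is included in transfected HEK293 cells. Compound exposure lasted 30-36 h at 37C, with 4.5 mM final sodium butyrate as control, followed by a ONE-Glo read.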
RGS12 GoLoco inh: RGS12 GoLoco-Gai1 interaction inhibition. P63096. Gai1:RGS12 GoLoco peptide FP, rhodamine, 10 min. Potency, µM (top dose mostly 61.6 µM), without a hit: at the top dose activity, negative = inhibition, actives largely listed as inhibitors. hit rate 0.44% among 230,000; active = well fitted inhibition curve with a large enough effect, not every such curve was filed as active; inactive = no such curve, though single readings can be large or run the other way; also: % is scaled to controls: 0 for no effect and ±100 for the full control effect; nearly all actives have a fitted effect of over 30% in size; many of its hits are not listed in these tables
Target sequence (P63096 whole entry, looked up): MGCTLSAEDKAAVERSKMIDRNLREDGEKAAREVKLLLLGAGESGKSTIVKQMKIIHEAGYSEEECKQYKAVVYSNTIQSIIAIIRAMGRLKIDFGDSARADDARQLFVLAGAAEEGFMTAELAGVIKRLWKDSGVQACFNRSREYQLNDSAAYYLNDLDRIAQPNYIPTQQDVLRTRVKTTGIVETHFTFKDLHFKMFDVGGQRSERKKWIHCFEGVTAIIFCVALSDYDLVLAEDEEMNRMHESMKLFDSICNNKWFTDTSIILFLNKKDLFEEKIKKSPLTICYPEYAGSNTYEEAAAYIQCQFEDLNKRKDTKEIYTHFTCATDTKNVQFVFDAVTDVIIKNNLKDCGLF
IMPase Li cell: membrane-permeable IMPase blocker, potentiated with lithium. Potency, µM (highest dose often 59.4 µM), without a hit: at the top dose activity, negative = IMPase inhibition, actives largely listed as inhibitors. AID 1457. hit rate 0.35% among 210,000. CHO-M1 cells, IP1 TR-FRET (IP-One), carbachol + lithium;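 also: IP1 builds up when IMPase is blocked and the TR-FRET signal falls; plate controls were basal vehicle for no effect and high inhibitor control for full effect; nearly all actives have a fitted effect of over 50% in size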
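Readout is a homogeneous TR-FRET IP1 immunoassay (Ex 320, Em 665 and 620), where raised cytosolic IP1 lowers signal. Cells were CHO-M1 treated 30 min at 37C with test compounds plus a little lithium; AC50 values came from Hill-equation fitting.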
* = called active by the depositor; i = inactive; ? = inconclusive; . = no result given; [ ] = another dose, or the depositor's remark. Unless noted, calls follow the shape of the dose curve; as a rule, active = well fitted curve in the direction sought with a large enough effect; inconclusive = small, poorly fitted or top-dose-only effect, or another doubt; inactive = no such curve, though single readings can be large; an effect the other way counts as inactive or inconclusive. Potency is read from the fitted curve at half-maximal effect. An excerpt; the hit share may differ from the screen's.

Values run as follows: NPSR antagonist, Epigenetic reg, Luc counter, RECQ1 helicase, SMN2 splice enh, RGS12 GoLoco inh, IMPase Li cell
#1 O=C(O)c1cccc(NC(=O)c2cn(-c3ccccc3)nc2-c2ccncc2)c1
    14%, -2.0%[10.1 µM], 0%, 27%, -3%, 12%, 1%
#2 CN1CCc2nc(NC(=O)c3cccc(OC(F)F)c3)sc2C1
    -9%[46.1 µM], -0.2%, -1%, -13%, 16%, 32%[activator], -1%[38.3 µM]
#3 COc1ccccc1OCC(=O)Nc1ccc(S(=O)(=O)N2CCCCCC2)cc1
    ?, 7.3%, 3%, -2%, -18%, 13%, 3%[38.3 µM]
#4 Cn1ncc(N=Cc2ccc([N+](=O)[O-])cc2)c1C(=O)N1CCOCC1
    6%[46.1 µM], -1.0%, 16%, i, 22%, 12%, 5%[38.3 µM]
#5 Cc1ccc(C)c(S(=O)(=O)N(C(=O)c2ccncc2)c2ccc(OC(=O)c3ccncc3)cc2)c1
    33%, -1.1%, 1%, -1%, ., 11%, 5%
#6 O=C(O)c1cccc(N/N=C/c2ccc(-c3ccccc3)cc2)c1
    -10%, -2.1%, -1%, -3%, 0.2µM*, 1%, 1%
#7 COc1ccc(S(=O)(=O)NNC(=O)C(=O)NNc2ccccn2)cc1
    -33%, -3.5%, ., -4%, ., -8%, .
#8 CCOC(=O)/C(C#N)=C\c1cc(OC)c(OC)cc1[N+](=O)[O-]
    -7%, -1.6%, -1%, 15%, ., 19%, 1%
#9 O=C(Cn1nc(-c2cccc(Cl)c2)ccc1=O)Nc1ccccc1Br
    0%, 6.5%, -5%, i, -10%, 19%, 11%
#10 CC(C)(C)c1ccc(OCCCNCc2ccccc2)cc1
    -10%, 0.7%, -2%, -3%, -25%, 27%, -2%
#11 FC(F)(F)c1cccc(OCCN2CCN(Cc3ccccc3)CC2)c1
    -24%[46.1 µM], -0.9%, ., -14%, ., ., .
#12 C=CCN(CC=C)CCOc1ccc(OC(C)C)cc1
    -4%, -0.4%, -2%, i, 14%, -2%, 13%
#13 Cc1c(C(=O)O)c(C(=O)O)nc2ccc(N3CCOCC3)cc12
    2%, -1.8%, 0%, i, 11%, -15%, -3%
#14 Cc1ccc(S(=O)(=O)N2CCCCC2)cc1NC(=O)CNCc1ccco1
    -7%, 0.0%, ., -6%, ., -36%, .
#15 CC(=O)NNC(=O)c1csc(Cc2c(Cl)sc3ccc(Cl)cc23)n1
    2%, -1.4%, ., -6%, ., -3%, .
#16 COc1ccc(C(C#N)N2N=C(c3ccccc3)CC2c2ccccc2)cc1OC (stereo unspecified)
    -23%, -3.2%, -9%, -1%, 4%, 3%, -1%
#17 COc1cc2ncnc(NCCCN3CCOCC3)c2cc1OC
    2%, 3.9%, ., -3%, ., 4%, .
#18 COc1ccc(CNc2nc3nc4c(c(=O)n3[nH]2)CCC4)cc1
    2%[46.1 µM], -0.4%, -6%, i, -10%, 5%, 2%[38.3 µM]
#19 CN1CCN(CC(=O)Nc2ccccc2Sc2ccccc2)CC1
    9%, -1.2%, -2%, -4%, -7%, 3%, 19%
#20 O=C(CN1CCC(Cc2ccccc2)CC1)N1CCc2ccccc2C1
    -9%, -1.4%, -1%, -3%, 1%, -1%, 13%

Values run as follows: NPSR antagonist, Epigenetic reg, Luc counter, RECQ1 helicase, SMN2 splice enh, RGS12 GoLoco inh, IMPase Li cell
#21 Cc1ccc2cc(CN(Cc3ccco3)C(=S)NCC3CCCO3)c(=O)[nH]c2c1 (stereo unspecified)
    2%, 0.0%, -7%, -2%, ., 11%, 5%
#22 COc1cccc(CN2C(=O)C3CCCN3c3ccc(S(=O)(=O)N4CCOCC4)cc32)c1 (stereo unspecified)
    -5%[46.1 µM], -1.9%, 1%, 28µM*, -10%, 51%[activator], ?
#23 c1ccc(C2C3=C(Nc4ncnn42)c2ccccc2CCC3)cc1 (stereo unspecified)
    -17%[46.1 µM], 0.7%, -2%, -4%, ?, 10%, 10%[38.3 µM]
#24 C=CCc1ccc(OCC(O)COc2ccc(CC=C)cc2OC)c(OC)c1
    -19%[46.1 µM], 11%, -5%, i, -33%[inhibitor], 12%, 30%[38.3 µM]
#25 COc1ccc(C(CC(=O)c2ccc(C)cc2)C(C#N)C#N)cc1OC (stereo unspecified)
    -25%, 1.5%, -4%, -10%, -4%, -4%, -5%
#26 CCn1c2ccccc2c2cc(NC(=O)CNC)ccc21
    16%, 1.1%, ., -16%, ., 4%, .
#27 COC(=O)CCCC1=CC2=CC(=O)C(C)(OC(=O)c3cccs3)C(=O)C2=CN1CCCCO (stereo unspecified)
    6%, ?, -2%[7.66 µM], 15%[11.5 µM], -2%[9.22 µM], -8%[14.2 µM], 7%
#28 CC(=O)c1c(N2CCN(C)CC2)nc(=S)n(-c2cc(C)ccc2C)c1C
    9%, -0.4%, -1%, i, 4%, 14%, 7%
#29 C=CCc1cc(Cl)ccc1OCCOCCN(C)C
    9%, -5.9%, 0%, 7%, -25%, 7%, 18%
#30 COCCCNCC#CCOc1ccc(OC)cc1
    12%, -0.8%[10.1 µM], 2%, i, -15%, 8%, -5%
#31 Cc1cc(OCCN2CCCC2)ccc1[N+](=O)[O-]
    14%, 1.0%, 1%, -7%, 11%, 8%, 4%
#32 O=C(NNc1nc2c(F)cccc2s1)C1=COCCO1
    12%, -1.1%, 0%, 0%, 3%, 5%, -1%
#33 Cc1nc(SCc2ccc(O)c([N+](=O)[O-])c2)c([N+](=O)[O-])[nH]1
    -37%, 1.1%, ., -2%, ., 6%, .
#34 Cc1cc(C)nc(N2CCCC(C(=O)NCc3ccccc3F)C2)n1 (stereo unspecified)
    -1%, 0.9%, -4%, i, 7%, 13%, -1%
#35 Cc1ccc(S(=O)(=O)N2CCOCC2)cc1NC(=O)CN1CCN(c2ccc(O)cc2)CC1
    -2%, 1.1%, 5%, ?, -26%, -15%, 3%
#36 CN1c2ccccc2C(=O)NC1c1ccc(Cl)cc1 (stereo unspecified)
    1%, -2.7%, -1%, i, -3%, 0%, 4%
#37 O=C(CNCc1ccco1)Nc1ccc(Oc2ccccc2)cc1
    -19%, -1.2%, -1%, -2%, -23%, -22%, -1%
#38 O=c1c2c(nc3c(-c4ccccc4)c[nH]n13)CCCC2
    -1%[46.1 µM], 0.9%, 1%, ?, -32%[inhibitor], 10%, 25%[38.3 µM]
#39 CCN1CCN(CCOc2ccc(Br)cc2C)CC1
    4%, -3.4%, -1%, i, -17%, -5%, 5%
#40 CC(=O)Nc1ccc(S(=O)(=O)NNC(=O)C(=O)NNc2ccccn2)cc1
    -14%, 7.0%, ., -3%, ., -1%, .

Values run as follows: NPSR antagonist, Epigenetic reg, Luc counter, RECQ1 helicase, SMN2 splice enh, RGS12 GoLoco inh, IMPase Li cell
#41 CCCC(C)C(=O)Nc1ccc(S(=O)(=O)Nc2nccs2)cc1 (stereo unspecified)
    -12%, 1.1%, -1%, 5%, ., -8%, 2%
#42 O=C(Cn1c(=O)sc2ccccc21)Nc1nc2c(s1)CCCC2
    -9%, 13%, -3%, 5%, ?, 11%, 12%
#43 COc1ccccc1N1CCN(CC(=O)N2CCCC2)CC1
    7%, -0.2%, 0%, -7%, 11%, -4%, -3%
#44 Cc1ccc(N/C(C(Cl)=C(Cl)Cl)=C(/Cl)[N+](=O)[O-])c(C)c1
    -12%, ?, -3%, i, -7%, 5%, 4%
#45 CCCCOc1ncnc2c1[nH]c1ccc(OC)cc12
    -2%[46.1 µM], -1.2%, -4%, -3%, ?, 4%, -12%[38.3 µM]
#46 Cc1ccc([N+](=O)[O-])c(OCCN2CCNCC2)c1
    33%, -0.1%, 2%, -12%, -3%, 3%, 17%
#47 COc1cccc(CN2CCN(C(=O)c3ccc(-c4ccccc4)cc3)CC2)c1OC
    -29%, 0.0%, -7%, i, -9%, -1%, 11%
#48 CCN(CC)CCCNCC(=O)Nc1ccc2c(c1)CCC2
    10%, -0.2%, -3%, -2%, -5%, -8%, 2%
#49 C=CCC1(NCc2ccco2)CCN(CC)CC1
    2%, 0.1%, -2%, i, -27%, -15%, 9%
#50 OCCNCCCCSc1ccc(Cl)cc1
    16%, -1.0%, -1%, i, -28%, -18%, -2%

Grouped by structure: those above containing a halogen.
Values run as follows: NPSR antagonist, Epigenetic reg, Luc counter, RECQ1 helicase, SMN2 splice enh, RGS12 GoLoco inh, IMPase Li cell
#2 CN1CCc2nc(NC(=O)c3cccc(OC(F)F)c3)sc2C1
    -9%[46.1 µM], -0.2%, -1%, -13%, 16%, 32%[activator], -1%[38.3 µM]
#9 O=C(Cn1nc(-c2cccc(Cl)c2)ccc1=O)Nc1ccccc1Br
    0%, 6.5%, -5%, i, -10%, 19%, 11%
#11 FC(F)(F)c1cccc(OCCN2CCN(Cc3ccccc3)CC2)c1
    -24%[46.1 µM], -0.9%, ., -14%, ., ., .
#15 CC(=O)NNC(=O)c1csc(Cc2c(Cl)sc3ccc(Cl)cc23)n1
    2%, -1.4%, ., -6%, ., -3%, .
#29 C=CCc1cc(Cl)ccc1OCCOCCN(C)C
    9%, -5.9%, 0%, 7%, -25%, 7%, 18%
#32 O=C(NNc1nc2c(F)cccc2s1)C1=COCCO1
    12%, -1.1%, 0%, 0%, 3%, 5%, -1%
#34 Cc1cc(C)nc(N2CCCC(C(=O)NCc3ccccc3F)C2)n1 (stereo unspecified)
    -1%, 0.9%, -4%, i, 7%, 13%, -1%
#36 CN1c2ccccc2C(=O)NC1c1ccc(Cl)cc1 (stereo unspecified)
    1%, -2.7%, -1%, i, -3%, 0%, 4%
#39 CCN1CCN(CCOc2ccc(Br)cc2C)CC1
    4%, -3.4%, -1%, i, -17%, -5%, 5%
#44 Cc1ccc(N/C(C(Cl)=C(Cl)Cl)=C(/Cl)[N+](=O)[O-])c(C)c1
    -12%, ?, -3%, i, -7%, 5%, 4%
#50 OCCNCCCCSc1ccc(Cl)cc1
    16%, -1.0%, -1%, i, -28%, -18%, -2%

Screening results from PubChem BioAssay.
